StopGo FLuc – lowers the firefly signal of an FMDV 2A StopGo reporter; HEK cells with a luciferase reporter of 2A StopGo recoding; Potency, µM (highest dose often 57.5 µM), for inactives: at the top dose signal change, negative = less light; 120,000 compounds, 0.23% hits; AID 1745856; active = well fitted falling curve with a large enough effect; inconclusive = small, poorly fitted or top-dose-only effect; inactive = no such curve, though single readings can be large or run the other way; note: nearly all actives have a fitted effect of over 60% in size; overnight with compound
StopGo RLuc – lowers the Renilla signal of an FMDV 2A StopGo reporter; AID 1745857; HEK cells with a luciferase reporter of 2A StopGo recoding; Potency, µM (titrated, usually from 57.5 µM), without a hit: top-dose signal change, negative = less light; 120,000 compounds, 0.32% hits; active means well fitted falling curve with a large enough effect; inconclusive means small, poorly fitted or top-dose-only effect; inactive means no such curve, though single readings can be large or run the other way; note: nearly all actives have a fitted effect of over 55% in size; overnight with compound
The depositor's hits bear a star; ? = inconclusive; & = joins results of further samples; [ ] = another dose, or the depositor's remark. % is set by controls: 0 for no effect and ±100 for the full control effect; potency is the fitted concentration of half-maximal effect.

Second line of a record – StopGo FLuc | StopGo RLuc
Cc1nn(CC(=O)NCc2ccc(N(C)C)cc2)c(=O)c2c(C)n(-c3ccc(Cl)cc3)nc12
  3% | -19%
COc1cc(/C=C/C(=O)OCc2cc(=O)oc3cc(C)ccc23)ccc1O
  -3% | -7%
O=C(CSC1CCCCC1)c1ccc(OC(F)F)cc1
  ? | 14%
Oc1c(C(c2ccc(F)cc2)N2CCCC2)sc2nc(-c3ccco3)nn12 (stereo unspecified)
  14% | 37%[activator]
O=C(O)c1ccc(C(F)(F)F)nc1
  0% | 0%
COc1ccc(-c2cn3nc(N4CCCC(C(=O)NCc5ccc(Cl)cc5)C4)sc3n2)cc1 (stereo unspecified)
  85%[activator] | -13%
O=C(NCCc1ccccc1)c1cc2cc(F)ccc2[nH]1
  197%[activator] | 25%
CCCc1cc(=O)[nH]c(SCc2nc(-c3ccc(F)cc3)no2)n1
  1% | -7%
COc1ccc2[nH]cc(C3N4CC5(C)CN3CC(C)(C4)C5=O)c2c1 (stereo unspecified)
  4% | -3%
NC(=O)CCS(=O)CCC(N)=O
  4% | -13%
C[C@H]1CNCCc2ccc(Cl)cc21
  -12% | -10%
CC(C)CCn1c(SCCc2ccccc2)nc2c1c(=O)n(C)c(=O)n2C
  5% | -3%
CC(NC(=O)c1cccc(N(C)C)c1)c1ccc(Cl)s1 (stereo unspecified)
  30% | 61%[activator]
CCOc1ccc(-c2cc(=O)c3ccccc3o2)cc1
  192%[activator] | 38%[activator]
CC(C)(C)c1ccc(COC(=O)c2cc(=O)c3ccccc3o2)cc1
  -7% | -4%
Cc1ccc(OCC(=O)N(C)CC(=O)Nc2c(Cl)cccc2Cl)cc1C
  -2% | -11%
CCC(Sc1nc(-c2ccccc2F)nc2c1Cc1c(CO)cnc(C)c1O2)C(=O)Nc1cc(C)ccc1C (stereo unspecified)
  -12% | -3%
CCCCN1CC(C(=O)Nc2ccc(C(=O)Nc3ccc(C)c(Cl)c3)cc2)CC1=O (stereo unspecified)
  117%[activator] | -3%
CCOC(=O)c1ccccc1NC(=O)c1nn(-c2ccc(OC)c(Cl)c2)c(=O)c2c1c1ccccc1n2C
  -19% | -9%
CCN1CCCC(CNC(=O)Cc2ccc(C(F)(F)F)cc2)C1 (stereo unspecified)
  -2% | -3%
COCCc1nn2c(=O)cc(COC(=O)c3ccc(OC)c(OC)c3)nc2s1
  -6% | -13%
CCC(=O)Nc1ccc2oc(-c3ccc(OC)c(Cl)c3)nc2c1
  166%[activator] | -2%
FC(F)(F)c1cccc(NC2(c3nnnn3C3CCCCC3)CCCC2)c1
  14% | 99%[activator]
Cc1ccccc1OCCCCn1c(C2CC(=O)N(c3ccccc3Cl)C2)nc2ccccc21 (stereo unspecified)
  -5% | -8%
CN1CCN(C(=O)c2ccc3c(c2)N(Cc2c(F)cccc2Cl)C(=O)c2ccccc2S3)CC1
  8% | 40%[activator]
CC(C)n1cc2c(C(F)(F)F)cc(=O)n(CCC(=O)O)c2n1
  5% | -3%
COc1ccccc1C1C=C(c2ccccc2)Nc2nnnn21 (stereo unspecified)
  0% | ?
CCC(C)NC(=O)c1ccc(-n2c(-c3ccccc3)cc3c2CCCC3)cc1 (stereo unspecified)
  8% | ?
CCc1nc2c(cnn2-c2ccc(C)cc2)c(=O)n1-c1ccc(C)cc1
  4% | 1%
CS(=O)Cc1cccc(C(=O)NC2CCN(Cc3ccc(Cl)cc3)CC2)c1 (stereo unspecified)
  -1% | -6%
CCOC(=O)c1sc(NC(=O)c2nc(SCC)ncc2Cl)c(C(=O)OCC)c1C
  -14% | -6%
CCc1c(C)sc(NC(=O)C(F)(F)C(F)(F)C(F)(F)C(F)(F)F)c1C#N
  22µM* | 25µM*
Cc1ccc(F)cc1NC(=O)CSc1nc(-c2cccs2)cc(C(F)(F)F)n1
  -19% | -10%
COc1ccc(C2CC(=O)C=C(Nc3ccccc3)C2)cc1 (stereo unspecified)
  8% | 9%
CC(C)OC(=O)COc1ccc2c(=O)c(Oc3ccccc3Br)coc2c1
  -3% | 2%
O=C(CSc1nccn1-c1ccc(F)cc1)Nc1ccc(OC(F)(F)F)cc1
  -14% | 2%
O=S(=O)(Nc1cccc(F)c1)c1ccc(-c2cnc(C3CC3)o2)cc1
  -20% | 142%[activator]
Cc1ccc2oc(C(=O)Nc3cccc(Cl)c3C)cc(=O)c2c1
  0% | 4%
CC(=O)Nc1ccccc1-c1nc2ccccc2n(C(C)C(=O)Nc2cc(Cl)ccc2C)c1=O (stereo unspecified)
  16% | 57%[activator]
CCOc1ccc(OC(=O)c2c(-c3ccccc3Cl)noc2C)cc1
  28µM* | ?
COc1ccc(OCCSc2nc3ccccc3n2CC(=O)N2CCOCC2)cc1
  5% | -3%
Cc1ccc(CNc2nc3nc(C)c(Cl)c(C)n3n2)cc1
  27% | 3%
COc1ccc2c(Sc3ccccc3)c(C(=O)NCc3cc(Br)ccc3OC)[nH]c2c1
  -9% | 12%
Cc1ccc(C)c(N2CCN(C(=O)CN3CCSc4ccc(S(=O)(=O)N(C)C)cc43)CC2)c1
  -20% | 0%
Nc1ccc2oc(-c3ccccc3Br)nc2c1
  54%[activator] | 21%
CCOc1ccc2c(c1)c(=O)c(S(=O)(=O)c1ccc(CC)cc1)cn2Cc1cccc(Cl)c1
  -17% | -8%
CCOc1ccc(S(=O)(=O)Nc2cccc(-c3ccc(N4CCCC4)nn3)c2)cc1
  46%[activator] | 205%[activator]
Cc1nc(Cc2nc(-c3ccc4c(c3)OCCCO4)cs2)cs1
  -18% | ?
Cc1cccc(C(=O)Nc2ccc(C(=O)OCc3cc(=O)n4nc(CC(C)C)sc4n3)cc2)c1
  19% | -8%
COc1ccc(C2=NN(C(=O)Cn3cnc4sccc4c3=O)C(c3ccco3)C2)cc1 (stereo unspecified)
  31% | -4%
Cc1ccccc1NC(=O)CCc1c[nH]c2ccccc12
  88%[activator] | 2%
COc1cccc(-c2nc(CS(=O)(=O)CC(=O)N3CCN(c4cc(C)ccc4C)CC3)c(C)o2)c1
  ? | ?
COC(=O)[C@H](C(C)C)N(CCCc1cn(Cc2ccccc2)nn1)S(=O)(=O)c1ccc(F)cc1Br
  ? | 37%[activator]
Cc1c(C)n(CCCN2CCOCC2)c2ncn3nc(COc4ccc(Cl)cc4)nc3c12
  -11% | -22%
CCc1ccc(OCc2cccc(C(=O)O)c2)cc1
  ? | 4%
Cc1ccccc1-c1nc2cc(NC(=O)c3cccc(OCCC(C)C)c3)ccc2o1
  10% | -9%
Cc1cnc(NC(=O)CCNS(=O)(=O)c2c(C)c(C)cc(C)c2C)s1
  -1% | -10%
CN[C@@H]1[C@@H](O)[C@@H](O[C@@H]2[C@H](O)[C@H](O[C@H]3OC(CN)=CC[C@H]3N)[C@@H](N)C[C@H]2N)OCC1(C)O (stereo partly specified)
  13%[11.5 µM] | -1%
CN(CC(=O)Nc1cccc(F)c1)Cc1ncc(-c2ccc(F)cc2)o1
  54%[activator] | 9%
C[C@]1(Cn2ccnn2)[C@H](C(=O)O)N2C(=O)C[C@H]2S1(=O)=O
  -20% | -10%

(more compounds)
Second line of a record – StopGo FLuc | StopGo RLuc
CCCCCCn1c(SCCOC)nc2c1c(=O)[nH]c(=O)n2C
  13% | 0%
CC(C)c1cnc2c(c1SCC(=O)c1ccc(Cl)cc1)c(=O)n(C)c(=O)n2C
  29% | 25µM*
CCOc1ccc(Oc2ccc(NC(=O)c3cc(=O)[nH]c4ccccc34)cc2)cc1
  -7% | -10%
COc1cc(OC)c(Nc2nc3ccccc3nc2-n2nc(C)cc2C)cc1Cl
  18% | -15%
CCc1cc(=O)oc2cc(OCc3nc(C)no3)ccc12
  6% | -9%
COc1ccc(C(=O)Nc2cc(-c3nc4cc(C)ccc4o3)ccc2C)cc1[N+](=O)[O-]
  39%[activator] | 3%
Cc1ccc(N(CC(C)C)S(=O)(=O)c2nnc(NC(=O)C(C)C)s2)cc1
  6% | 12%
C1CCN(C2(CNC3CCCC3)CCCCC2)CC1
  -2% | 8%
C=CCNC(=S)N(Cc1ccc(C)cc1)Cc1ccco1
  9% | 59%[activator]
CC(OC(=O)Cn1cnc2c1c(=O)n(C)c(=O)n2C)C(=O)Nc1cccc(C#N)c1 (stereo unspecified)
  -1% | -10%
O=C(NC(C1CC1)C1CC1)c1cc(F)c(Cl)cc1Cl
  -11% | 15%
CCCNC(=O)c1cccc(NC(=O)Nc2ccccc2)c1
  43%[activator] | 44%[activator]
COCCn1c(SCC(=O)c2cc(C)ccc2C)nc2cc(C(=O)NC3CCCC3)ccc2c1=O
  -5% | -10%
O=C(NCCc1cccs1)c1ccc(CN2C(=O)CCn3nccc32)cc1
  21% | -4%
CCOc1ccc(S(=O)(=O)n2ccnc2C)cc1C(C)(C)C
  9% | 384%[activator]

3 entries already listed, ordered by number of heavy atoms, highest first:
Second line of a record – StopGo FLuc | StopGo RLuc
COCCn1c(SCC(=O)c2cc(C)ccc2C)nc2cc(C(=O)NC3CCCC3)ccc2c1=O
  -5% | -10%
COc1cc(OC)c(Nc2nc3ccccc3nc2-n2nc(C)cc2C)cc1Cl
  18% | -15%
Cc1ccc(N(CC(C)C)S(=O)(=O)c2nnc(NC(=O)C(C)C)s2)cc1
  6% | 12%

Additional compounds follow.
Second line of a record – StopGo FLuc | StopGo RLuc
Cc1ccc(NC(=O)Nc2ccc3nc(N4CCN(C)CC4)cc(C)c3c2)cc1F
  75%[activator] | -10%
CC(C)(C)C(=O)NCCCNC(=O)c1cccs1
  14% | 10%
COC(=O)Cn1c(=O)c2cccn2c2cccnc21
  0% | -1%
COC(=O)c1cc2occc2n1Cc1nc(-c2cccc(Br)c2)oc1C
  -17% | -13%
NC(=O)CCCCC1CCSS1 (stereo unspecified)
  16%[11.5 µM] | 11%
CCCN1C(SCC(=O)Nc2ccc(CC)cc2)=NS(=O)(=O)c2ccccc21
  -14% | 6%
C/C(=N/NC(=O)c1cccs1)c1ccc2ccccc2c1
  133%[activator] | 27%
COc1ccc(CNc2ncnc3c2cnn3-c2ccc(C)c(C)c2)cc1
  63%[activator] | -9%
COc1ccc2c(-c3ccccc3)cc(SCC(=O)NC3CC3)nc2c1
  13% | 85%[activator]
COc1ccc(/C=C/c2nc3ccccc3s2)cc1OC(F)F
  62%[activator] | 0%
COc1cccc(OC(=O)CSc2nnc(-c3cccs3)o2)c1
  -2% | -6%
O=C(COc1ccccc1Cl)Nc1ccc(-n2cnnn2)cc1
  13% | -9%
COC(=O)c1cc2oc3ccccc3c2n1CC(=O)Nc1ccc(F)c(Cl)c1
  0% | -10%
COc1cc(C)c(C)cc1S(=O)(=O)n1nnc2ccccc21
  -1% | 3%
COc1ccc(Cc2nc(C)c(-c3ccccc3)s2)cc1OC
  ? | 10µM*
CCOc1ccc(CNc2ccccc2)cc1
  177%[activator] | 10%
CCCOc1ccc(C2C(=O)N(C3CCC(C)CC3)CC(=O)N2Cc2cccc(OC)c2)cc1OC (stereo unspecified)
  30%&-7% | 19%&-2%
Cc1nc(C)c(C(=O)C2=C(O)C(=O)N(CCN3CCOCC3)C2c2ccc(C(C)(C)C)cc2)s1 (stereo unspecified)
  -18% | -6%
Cc1c(CC(=O)N2CCN(Cc3ccccc3)CC2)c(=O)oc2cc(O)ccc12
  -10% | -10%
CC1CCCN(CCS(=O)c2ccccc2)C1 (stereo unspecified)
  0% | 0%
Cc1ccc(NC(=S)NNC=O)cc1
  0% | 3%
CCOc1ccccc1Nc1ncnc2c1cnn2-c1ccc(C)cc1
  25% | -9%
C=CCNS(=O)(=O)c1cccc(C(=O)Nc2ccc(N3CCCCC3)c3ccncc23)c1
  -12% | 29%
CCOC(=O)C1CCN(c2cc3c(cc2NC(=O)c2ccc(OC)c(OC)c2)n(C)c(=O)n3C)CC1
  -5% | 0%
CCN1CCC2(CC1)N=C(SCC(=O)Nc1ccc(F)cc1F)C(c1ccccc1)=N2
  -16% | -20%
Cn1c(=O)n(C)c2cc(CNCc3ccccc3Cl)ccc21
  9% | 2%
O=C(Cn1ncc2ccccc2c1=O)NC1CCCCC1
  30% | 0%
C=CCOc1ccc(CNCc2ccco2)cc1OCC
  3% | 3%
C=CCNC(=O)c1nc(-c2cccc3[nH]ccc23)no1
  198%[activator] | 42%[activator]
CCCc1cc(=O)oc2c(C)c3c(cc12)CN(CCc1ccc(Cl)cc1)CO3
  3% | -5%
CCNC(=O)c1ccc(CN2C(=O)C(C)=C(c3ccc(C)c(C)c3)S2(=O)=O)cc1
  -12% | -10%
Cc1nc2cc(NC(=O)COc3cccc(Cl)c3)ccc2o1
  182%[activator] | 18%
Nc1cc(=O)[nH]c(SCc2ccc(Cl)cc2Cl)n1
  ? | ?
CCS(=O)(=O)N1CCc2cc(C(=O)Nc3cc([N+](=O)[O-])ccc3C)ccc21
  41%[activator] | -13%
COc1cccc(OCCn2c(C)nc3cc(C)c(C)cc32)c1
  -17% | ?
CC(C)CCN(C)C1CCN(C(=O)Nc2ccc(Cl)cc2)CC1
  110%[activator] | 18%
Cc1cc(C)nc(NS(=O)(=O)c2ccc(N)cc2)n1
  -13%[11.5 µM] | 33%[activator]
CCc1ccc(NC(=O)c2nn(-c3ccc(C)cc3)c(=O)n(C)c2=O)cc1
  -9% | -12%
CCOC(=O)C1=C(CN2CCC(C)CC2)NC(=O)NC1c1ccc(F)cc1 (stereo unspecified)
  -18% | -6%
CSc1nn(Cc2ccc(F)cc2)c(N(C(C)=O)C(C)=O)c1S(=O)(=O)c1ccccc1
  8% | 61%[activator]
Cc1ccoc1C(=O)OCc1cccc(C#N)c1
  166%[activator] | 12%
NC(=O)CN1C(=O)C2(CC(=O)Nc3c2cnn3Cc2ccccc2Cl)c2ccccc21 (stereo unspecified)
  -11% | -6%

Screens from PubChem BioAssay.

Some of the compounds tested (hit frequency here may not be typical).
